# Bioassay records from PubChem.
# YopH PTP inh: YopH tyrosine phosphatase inhibitors, primary screen, biochemical, fluorescence Ex485/Em525 | YopH tyrosine phosphatase [Yersinia enterocolitica] | inhibition, %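 (about 10 µM by stock and volumes)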 | actives 0.16% (n = 140,000);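 active = inhibition of 50% or more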;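 note: controls were vehicle for no effect and minimum signal wells for full effect; inactives centre near -20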
# RecA intein inh: Mtb RecA intein splicing inhibitors, primary screen, biochemical, fluorescence, HTS. Protein RecA (Mycobacterium tuberculosis (strain ATCC 25618 / H37Rv)), P9WHJ3. cell-free RecA intein splicing. inhibition, %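 (about 9 µM by stock and volumes)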. actives 0.75% (n = 290,000). AID 2221, 2009; in the data active = inhibition above about 30%; inconclusive = no clear call, values can overlap the other calls;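 note: 0% = vehicle wells and 100% = reference inhibitor control wells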
# Target sequence (P9WHJ3 whole entry, looked up): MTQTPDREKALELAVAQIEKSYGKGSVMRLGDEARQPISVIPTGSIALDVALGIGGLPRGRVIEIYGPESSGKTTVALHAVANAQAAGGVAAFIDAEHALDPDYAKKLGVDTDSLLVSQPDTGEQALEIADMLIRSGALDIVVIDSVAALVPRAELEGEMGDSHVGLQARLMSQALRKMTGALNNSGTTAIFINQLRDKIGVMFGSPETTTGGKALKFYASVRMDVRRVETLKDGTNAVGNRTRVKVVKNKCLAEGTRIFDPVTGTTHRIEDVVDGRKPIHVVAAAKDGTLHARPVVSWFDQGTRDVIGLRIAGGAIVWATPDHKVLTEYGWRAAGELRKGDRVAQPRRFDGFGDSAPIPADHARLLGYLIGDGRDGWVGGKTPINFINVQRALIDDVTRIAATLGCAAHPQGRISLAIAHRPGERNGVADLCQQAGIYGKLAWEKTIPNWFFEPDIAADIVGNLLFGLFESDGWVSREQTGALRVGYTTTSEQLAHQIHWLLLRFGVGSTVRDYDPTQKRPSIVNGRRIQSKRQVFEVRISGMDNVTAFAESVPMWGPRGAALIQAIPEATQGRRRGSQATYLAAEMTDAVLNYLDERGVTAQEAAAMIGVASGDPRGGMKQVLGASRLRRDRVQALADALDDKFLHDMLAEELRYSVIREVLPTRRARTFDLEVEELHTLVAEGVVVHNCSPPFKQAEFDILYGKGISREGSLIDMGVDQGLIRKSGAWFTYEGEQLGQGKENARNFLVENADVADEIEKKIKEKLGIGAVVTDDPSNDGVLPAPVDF
# Arbovirus inh: antivirals against arbovirus infection, primary screen, cell-based, full library, 10K replicate subset. arbovirus infection cell-based antiviral screen. inhibition, % at 10 µM. actives 0.37% (n = 200,000);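 active = inhibition from about 30%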;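 note: bluetongue infection of BSR cells; cell survival read as ATP light after 72 h; 0% = infected wells without compound and 100% = uninfected wells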
# Mtb growth: M. tuberculosis H37Rv growth inhibitors, H37Rv strain (AID 1626); inhibition, % at 10 µM, or IC50 in µM where a hit was titrated; actives 0.95% (n = 220,000); M. tuberculosis H37Rv growth inhibition; higher % means a stronger effect;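 active = confirmed in a dose series; inconclusive = inhibition above 80% but not taken into the dose series; inactive = below 80% or under 30% at every dose of the series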;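 note: bacteria incubated seven days before Alamar blue readout; 0% = bacteria only wells and 100% = bacteria with antibiotic wells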
# Mtb bLac sens: beta-lactam sensitization of Mtb H37Rv, H37Rv | M. tuberculosis H37Rv growth with meropenem, percent inhibition; hits of this screen are not shown here | inhibition, % at 25 µM | actives 0.27% (n = 330,000) | AID 434955, 2010;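 active = about 74% or more and at least 40 points above the plate without the antibiotic, then above 30% in a dose series; inconclusive = first-round hits that could not be retested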;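 note: growth measured after seven days incubation then overnight dye step; 0% = bacteria only wells and 100% = bacteria with antibiotic; twin plates without the antibiotic show which effects depend on it; some results filed as inactive read as strong as hits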
# Arbovirus inh repeat: second read-out of Arbovirus inh, no call of its own (marks repeat the call); inhibition, %; measured here: 10K subset replicate screen; many hits read low in the repeat;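 first of two repeat runs on a subset; 0% = infected and 100% = uninfected wells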
# * = called active by the depositor; ? = inconclusive; nt = no result given; & = joins results of further samples.
# Start of the listing, in advance (7 entries):
SMILES,YopH PTP inh,RecA intein inh,Arbovirus inh,Mtb growth,Mtb bLac sens,others
Cc1cc(C(=O)N2CCCC(N3CCN(c4cccc(Cl)c4)CC3)C2)n(C)n1 (centres undefined),nt,-2.2,nt,nt,-1,
O=C(Cn1nnc(-c2ccccc2)n1)N/N=C/c1cc([N+](=O)[O-])ccc1O,-37,1.0,-17,-15%,7,
CC(Sc1nnnn1-c1ccc(O)cc1)c1nc2ccccc2c(=O)[nH]1 (centres undefined),nt,3.1,nt,4%,9,
COc1cccc(C(=O)Nc2cccc(C(=O)N3CCOCC3)c2)c1,28,1.0,-1,-3%,-8,
c1ccc2c(c1)nc1n2CCS1,-18,0.5,14,-6%,-4,
O=c1[nH]c(=O)n(-c2ccccc2Cl)c(O)c1C=NCCN1CCCCC1,-20,-0.5,-1,-5%,-3,
O=C(CCCSc1nc2ccccc2[nH]1)NC(c1ccccc1)c1ccccc1,-31,5.4,12,0%,6,

# The list itself (from the top)
SMILES,YopH PTP inh,RecA intein inh,Arbovirus inh,Mtb growth,Mtb bLac sens,others
Cc1cc(C(=O)N2CCCC(N3CCN(c4cccc(Cl)c4)CC3)C2)n(C)n1 (centres undefined),nt,-2.2,nt,nt,-1,
O=C(Cn1nnc(-c2ccccc2)n1)N/N=C/c1cc([N+](=O)[O-])ccc1O,-37,1.0,-17,-15%,7,
CC(Sc1nnnn1-c1ccc(O)cc1)c1nc2ccccc2c(=O)[nH]1 (centres undefined),nt,3.1,nt,4%,9,
COc1cccc(C(=O)Nc2cccc(C(=O)N3CCOCC3)c2)c1,28,1.0,-1,-3%,-8,
c1ccc2c(c1)nc1n2CCS1,-18,0.5,14,-6%,-4,
O=c1[nH]c(=O)n(-c2ccccc2Cl)c(O)c1C=NCCN1CCCCC1,-20,-0.5,-1,-5%,-3,
O=C(CCCSc1nc2ccccc2[nH]1)NC(c1ccccc1)c1ccccc1,-31,5.4,12,0%,6,
COc1ccc(CN2CCN(C(C)C(=O)N3CCc4ccccc43)CC2)cc1OC (centres undefined),nt,-3.8,nt,nt,-1,
Cc1cccc(NS(=O)(=O)Cc2ccccc2)c1C,nt,-5.6,nt,nt,-1,
CC(C)C1(C(C)C)OC(=O)c2ccccc21,-30,2.0,7,7%,-1,
O=C(Oc1ccc([N+](=O)[O-])cc1)N1CCC(N2CCCCC2)CC1,-8,-2.9,0,21%,-5,
O=C(O)C1=C(C(=O)Nc2ccc(F)c(Cl)c2)CCCC1,-37,1.1,11,-12%,-5,
c1csc(-c2cnc3n2CCCC3)c1,-47,nt,nt,0%,-1,
CC1CC(N(C(=O)c2ccccc2Cl)c2ccccc2)c2ccccc2N1 (centres undefined),-8,-0.8,-1,nt,-2,
O=C(NC1CC1)c1cc2cc3ccccc3nc2s1,nt,-2.9,nt,nt,46,
O=C1CCN(Cc2ccccc2)S(=O)(=O)c2ccccc21,nt,2.0,nt,-9%,-10,
O=C(CNC(=O)Cc1ccccc1)N=Nc1c(O)n(Cc2ccc3c(c2)OCO3)c2ccccc12,-18,8.1,2,2%,nt,
O=S(=O)(c1ccc2c(c1)OCCO2)N1CCC(n2cnc3cc(F)ccc32)CC1,-14,2.4,6,-3%,-6,
CC12CCC(=O)N1C(C(=O)Nc1nc3ccc(S(C)(=O)=O)cc3s1)CS2 (centres undefined),nt,-1.8,nt,nt,1,
O=C1c2c(O)cc(O)cc2O[C@H](c2ccc(O)c(O)c2)[C@@H]1O,nt,-1.9,0,-8%&3%,-2,
COCCNC(=O)CC(NS(=O)(=O)c1ccc(C)cc1)c1ccco1 (centres undefined),-17,-0.5,5,-9%,4,
C=C(C)Cn1c(=O)c2c(nc3n2CCCN3CCc2ccccc2)n(C)c1=O,nt,-1.7,nt,nt,-4,
CCC(C)(C)NC(=O)C(c1cccnc1)N(CCOC)C(=O)Cn1nnc2ccccc21 (centres undefined),-13,-1.1,18,-11%,nt,
CCN1C(=O)N[C@@H](CCc2ccccc2)C(C(=O)OC)=C1C,nt,4.4,nt,-4%,-5,
CO[C@H]1[C@@H](OC)CC(OC2OC(CO)C(O)C(O)C2O)/C(=C\C#N)[C@@H]1O (some centres undefined),-29,-1.7,4,-13%,-10,
COc1ccc(OC)c(NS(=O)(=O)c2ccc(NC(=O)C3COc4ccccc4O3)cc2)c1 (centres undefined),-7,6.2,8,4%,12,
Cc1cc(=O)oc2ccc(OC(=O)c3cccc(S(=O)(=O)N4CCOCC4)c3)cc12,44,13,-1,38%,44,
CC(=O)Nc1ccc(NC(=O)CSc2nnc(C)c(=O)[nH]2)cc1,nt,-2.1,3,4%,5,
O=S(=O)(NC1CCCc2ccccc21)c1cnc[nH]1 (centres undefined),-2,3.6,2,1%,6,
Cc1ccc(NC(=O)C2CCCN2c2nn3c(=O)cc(C)nc3s2)cc1 (centres undefined),nt,0.3,nt,nt,-1,
C=CCN1C(=O)/C(=C/c2ccc(-c3ccc(F)cc3)o2)SC1=S,nt,-3.1,nt,nt,4,
Cc1ccc(S(=O)(=O)N2CCCCC2)cc1NC(=O)COC(=O)CNC(=O)c1cc(Cl)cc([N+](=O)[O-])c1,-9,-0.3,6,-1%,5,
Clc1ccc(CSc2ncnc3nc[nH]c23)cc1,5,3.4,-32,7%,0,
O=C(CSc1nc(Cc2ccccc2)nc2ccccc12)c1ccc2c(c1)OCCO2,-29,7.9,7,5%,-2,
Cc1ccc(CC(=O)N(C)CC(=O)N(CC(C)C)c2c(N)n(CC(C)C)c(=O)[nH]c2=O)cc1C,nt,-2.9,nt,nt,2,
CC(C)(C)C(=O)C[n+]1cccc(C(N)=O)c1,nt,0.0,8,-9%,-6,
OCn1c2ccccc2c2ccccc21,nt,-0.1,nt,3%,5,
CCOn1c(=O)c(-c2cccc([N+](=O)[O-])c2)[n+]([O-])c2ccccc21,-29,-5.3,-13,-2%,0,
Cc1ccccc1Cn1cnc2c(nnn2Cc2ccc(F)cc2)c1=O,-40,-3.7,-3,-10%,-3,
CCn1ncc([N+](=O)[O-])c1C(=O)N1CCc2ccccc2C1,nt,1.7,nt,nt,3,
O=S(=O)(NC1CC1)c1ccc(S(=O)(=O)N2CCc3ccccc32)cc1,-35,-6.0,12,-8%,3,
COc1ccc(NC(=O)CN(C)S(=O)(=O)c2ccccc2)cc1OC,-17,3.7,3,-11%,-3,
N#Cc1cc2c(nc1Cl)CCC2,nt,-0.3,nt,-10%,4,
CCCNc1nc(C)c(C(C)=O)cc1C#N,-15,1.4,0,-7%,3,
O=C(CSc1ccc(-c2ccccc2)nn1)Nc1ccc2c(c1)OCCO2,-30,0.2,2,7%,-8,
CC1(C)CC(=O)C2=C(C1)N=C1SCCC(=O)N1C2c1cccc([N+](=O)[O-])c1 (centres undefined),nt,-0.8,10,-1%,10,
CCc1ccc(CN(C(=O)c2ccco2)C2CCS(=O)(=O)C2)cc1 (centres undefined),nt,-0.3,nt,nt,4,
Cc1ccc(-c2onc3ccc(C4OCCO4)cc23)cc1,nt,-7.8,-3,2%,4,
Cc1ccc(NS(=O)(=O)c2ccc(CCC(=O)NCc3cccnc3)cc2)cc1,nt,-2.4,1,8%,2,
Cc1ccc(OC(=O)CCc2c(C)nc3ncnn3c2C)cc1,17,2.6,12,-4%,0,
CC1CCc2sc(C(=O)NC(C)C3CCCO3)cc2C1 (centres undefined),nt,3.2,nt,nt,8,
COc1ccccc1/C=C/C(=C1/C(=O)N(c2ccccc2)N=C1C)c1ccc(C)cc1,-23,-1.0,1,6%,13,
Cc1coc2c(C)c3oc(=O)c(CCC(=O)NCCCN4CCOCC4)c(C)c3cc12,nt,4.1,nt,nt,-13,
COc1ccc(-c2noc3c2-c2nc(-c4ccccc4C)sc2CC3)cc1,nt,-2.3,nt,9%,12,
Cc1cc(=O)oc2cc(NC(=O)C(C)Oc3ccccc3)ccc12 (centres undefined),nt,4.3,nt,nt,-11,
CC(C)[C@H](NC(=O)c1ccccc1)C(=O)OCc1nnc(-c2ccccc2)o1,nt,4.9,20,2%,2,
Cc1ccc(C(C(=O)NC2CCCC2)N(CCCO)C(=O)Cn2nnc(-c3ccc(C)o3)n2)cc1 (centres undefined),nt,0.4,nt,nt,-6,
COc1ccc(C)cc1N(CC(=O)N1CCCCCC1)S(=O)(=O)c1ccccc1,nt,-2.9,nt,nt,-1,
CCOc1ccccc1-c1nc(C(N)=O)c2[nH]c(=O)n(-c3ccc(F)cc3)c2n1,-35,1.2,-7,0%,6,Arbovirus inh repeat=0
O=C(CN(C(=O)Cn1nnc(-c2ccc(F)cc2)n1)c1cnc2ccccc2c1)NCC1CCCO1 (centres undefined),nt,nt,2,-4%,1,

# Next section
SMILES,YopH PTP inh,RecA intein inh,Arbovirus inh,Mtb growth,Mtb bLac sens,others
CCOC(=O)c1sc(Nc2ccccc2)nc1C,-19,0.0,-6,12%,-2,
CCN(Cc1ccccc1)C(=O)CCS(=O)(=O)c1ccc2c(c1)n(C)c(=O)c(=O)n2C,nt,-0.7,nt,nt,-1,
COc1ccccc1NC(=O)c1ccc(COc2ccc3c(c2)CCC3)cc1,-36,7.9,-4,-8%,-4,
Cc1ccc2c(c1)cc1c(=O)n(CC(=O)N3CCCC3)nc(C)n12,nt,-3.1,nt,nt,-6,
CN1C(=O)S/C(=C/c2ccccc2OCc2ccc(C(=O)O)cc2)C1=O,nt,-0.6,4,-2%,4,
O=C1CC(NCc2ccc3c(c2)OCO3)C(=O)N1Cc1ccc2c(c1)OCO2 (centres undefined),-62,nt,1,0%,-6,
CSCC[C@H](NC(=O)[C@H](Cc1ccccc1)n1c(=O)[nH]c2ccccc2c1=O)C(=O)N1CCC(C(=O)O)CC1,nt,1.1,nt,nt,-6,
Clc1cccc(C[n+]2cc(-c3ccccc3)n3c2CCC3)c1,10,0.4,-16,4%,-1,
C=CCON1C(=O)c2ccccc2C1=O,-21,4.6,5,-17%,-9,
COC(=O)c1sccc1NC(=O)c1cccs1,nt,1.2,nt,13%,0,
CN1C(C(=O)N2CCc3ccccc3C2)=CC(c2ccc(F)cc2)=NS1(=O)=O,nt,-4.7,nt,nt,-1,
CCOC(=O)C1=C(C)N(CCO)C(=O)NC1c1ccccc1 (centres undefined),-44,1.6,2,-2%,-6,
Cc1cccn2cc(CNC(=O)c3ccco3)nc12,-44,-3.6,7,-9%,-13,
Cc1nnc(SCC(=O)NC2CC2)n1CC1CCCO1 (centres undefined),nt,2.3,3,6%,2,
Cc1cccc(Oc2ccc(NC(=O)c3ccccc3C(=O)O)cc2)c1C,nt,4.1,26,1%,1,
CCN(CC1COc2ccccc2O1)C(=O)CN1C(=O)NC(C)(c2ccc(C)cc2)C1=O (centres undefined),nt,-2.2,nt,nt,-4,
NS(=O)(=O)c1ccc(CCNC(=O)CN2CCN(c3ccccc3F)CC2)cc1,-20,0.9,-1,-1%,2,
O=c1cc(CSc2ccccc2)[nH]c2ccccc12,nt,1.1,nt,nt,0,
CC12CCC(C(=O)N(CSC(=S)N/N=C\c3ccccc3Cl)C1=O)C2(C)C (centres undefined),0,-5.8,0,7%,0,
Cc1ccccc1NS(=O)(=O)c1cc2c3c(c1)C(C)C(=O)N3CCC2 (centres undefined),nt,-3.5,nt,nt,2,
O=[N+]([O-])c1cnc[nH]1,nt,-2.3,nt,nt,2,
Cc1cc(C)cc(NS(=O)(=O)c2ccc(NC(=S)Nc3ccccc3)cc2)c1,-33,4.4,9,-9%,-5,
CCOC(=O)Nc1ccc2ncn(C)c(=O)c2c1,-44,0.1,17,-6%,-5,Arbovirus inh repeat=7
C=CCn1c2ccccc2c2nnc(SCc3ccc4nonc4c3)nc21,-29,1.8,-14,0%,-3,
O=[N+]([O-])c1cc(Cl)cc(/C=N/n2cnnc2)c1O,nt,3.0,5,3%,-15,
CN(CC(=O)Nc1ccccc1Br)C(=O)c1cccn1C,nt,13,nt,nt,-8,
O=C1CCC(C(=O)N2CCCC(Nc3ccc(F)cc3)C2)=NN1 (centres undefined),nt,0.7,nt,nt,?,
CC1CCN(C2CC(=O)N(c3ccccc3)C2=O)CC1 (centres undefined),nt,nt,-2,1%,4,
O=C(Oc1ccc(C(=S)N2CCOCC2)cc1Cl)c1ccccc1F,nt,0.8,nt,nt,4,
O=C(c1ccc(Cl)cc1)C1CCN(C(=O)N2CCOCC2)CC1,-39,2.9,7,0%,-8,
Nc1ccc2c(c1)C(=O)c1ccccc1C2=O,nt,1.7,nt,nt,-8,

# The list is partial; rates above refer to the full screens.
